# TRPML1 blocker = inhibitors of human TRPML1 channel; Q9GZU1; TRPML1-inducible cells, Ca2+ dye fluorescence, FDSS; stronger effect = lower value; inhibition of EC80 agonist-evoked calcium signal; activity change, negative = inhibition, % (test concentration not listed); actives 0.02% (n = 390,000); AID 624415; in the data active means activity change below about -50%; inconclusive means about -30% to -50%; inactive means above about -30%;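 note: stimulus is agonist 54-4 at its EC80 concentration; % is set by controls: 0 for no effect and ±100 for the full control effect; compound concentration not given in the record; the text of the record puts the active cut at -80%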
#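 Calcium fluorescence in TRPML1-DL cells induced overnight with Tet: a 110 s read after compound pin addition, then a 110 s antagonist read after challenge with 54-4 at 4 uM final (EC80).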
# TRPV1 potentiator = potentiators of human vanilloid receptor 1 (TRPV1); potentiation, % at 8.33 µM; TRPV1-expressing cells, Fluo-8 calcium influx, capsaicin EC20 potentiation; host cell line not named in the record; control for the full effect not named in the record; AID 540277; actives 0.02% (n = 320,000); active means potentiation above 80%; inconclusive means 30% to 80%; inactive means below 30%; note: 0% is about no effect
# Target sequence (Q8NER1 whole entry, looked up): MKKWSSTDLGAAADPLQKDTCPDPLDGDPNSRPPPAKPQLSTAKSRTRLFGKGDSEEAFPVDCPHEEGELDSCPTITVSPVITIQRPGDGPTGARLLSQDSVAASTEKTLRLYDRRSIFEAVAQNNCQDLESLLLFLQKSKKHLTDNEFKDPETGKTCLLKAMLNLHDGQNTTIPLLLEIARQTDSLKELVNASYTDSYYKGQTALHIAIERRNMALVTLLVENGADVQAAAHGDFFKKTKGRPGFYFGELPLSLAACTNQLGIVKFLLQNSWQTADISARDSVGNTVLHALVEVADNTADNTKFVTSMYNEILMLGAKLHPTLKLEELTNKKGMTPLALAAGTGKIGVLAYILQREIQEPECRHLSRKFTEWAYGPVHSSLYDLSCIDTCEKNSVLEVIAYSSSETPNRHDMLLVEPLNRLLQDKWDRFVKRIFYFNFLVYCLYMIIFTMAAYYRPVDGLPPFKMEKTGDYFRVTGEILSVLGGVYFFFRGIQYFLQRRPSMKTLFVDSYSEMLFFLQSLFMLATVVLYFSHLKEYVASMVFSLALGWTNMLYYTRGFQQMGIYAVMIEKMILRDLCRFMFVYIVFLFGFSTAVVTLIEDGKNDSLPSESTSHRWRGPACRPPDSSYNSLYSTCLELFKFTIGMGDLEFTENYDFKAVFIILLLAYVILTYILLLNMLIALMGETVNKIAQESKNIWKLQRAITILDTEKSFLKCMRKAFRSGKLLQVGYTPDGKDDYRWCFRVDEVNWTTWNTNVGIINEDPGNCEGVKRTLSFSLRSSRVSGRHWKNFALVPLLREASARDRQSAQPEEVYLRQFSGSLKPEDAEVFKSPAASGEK
#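 Cells expressing TRPV1 were dye-loaded with Fluo-8 and read kinetically: 10 s baseline, 3 min after compound (agonist portion), then 2 min after EC20 capsaicin (allosteric enhancer portion). Calcium-bound dye fluorescence at 480/520 nm.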
# Six1-Eya2 inh = Six1/Eya2 interaction inhibition; Q15475+O00167; AlphaScreen GST-Six1/His-Eya2 binding, biochemical; stronger effect = lower value; control for the full effect not named in the record; activity change, % (test concentration not listed); actives 0.56% (n = 360,000); in the data active = activity change below about -65%; inconclusive = about -30% to -65%; inactive = above about -30%; note: % is set by controls: 0 for no effect and ±100 for the full control effect; compound concentration not given in the record
#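 Homogeneous AlphaScreen proximity assay pairing GST-Six1 with His-tagged Eya2 (added as 5X mix: 250 nM and 500 nM) in 50 mM Tris pH 8.0, 300 mM NaCl, 1 mM TCEP. Glutathione donor and nickel acceptor beads; 1 h, 37 °C, dark.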
# D2 potentiator = positive allosteric modulators of human D2 dopamine receptor | P14416 | DiscoveRx D2 beta-arrestin cells, luminescence, 90 min; 100% = 57 uM dopamine signal | potentiation, % (concentration not given with the values) | actives 0.23% (n = 360,000) | AID 624464; active = potentiation of 50% or more; inconclusive = 30% to 50%; inactive = 30% or less;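 note: compound concentration not given in the record; tested on top of an EC20 dose of dopamine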
#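 PathHunter beta-arrestin assay in DiscoveRx D2 cells. Compounds were added with an EC20 of dopamine (50 nM final) for 90 min at 37 deg C. Luminescence was read 1 h after detection reagent, with 57 uM dopamine as the EC100 control.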
# TRPML1 ag = human mucolipin-1 channel agonism; Q9GZU1; TRPML1-expressing cells, Ca2+ dye fluorescence, FDSS; host cell line not named in the record; reference of the full effect not given here; activation, % (no concentration beside the values); actives 0.12% (n = 410,000); in the data active = activation above about 50%; inconclusive = about 30% to 50%; inactive = below about 30%; note: 0% is about no effect; the text of the record puts the active cut at 80%
#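 Tetracycline-induced TRPML1-DL cells are seeded and incubated overnight before loading with a no-wash Ca2+ dye and quencher. Agonist activity is taken from the 110 s fluorescence read following compound pin-transfer on an FDSS, before EC80 54-4 challenge.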
# CtBP-E1A inh = CtBP/E1A binding inhibition | AlphaScreen GST-E1A/His-CtBP binding, 1536-well; stronger effect = lower value; control for the full effect not named in the record | activity change, % (no concentration beside the values) | actives 0.49% (n = 340,000); in the data active means activity change below about -65%; inconclusive means about -30% to -65%; inactive means above about -30%; note: % is set by controls: 0 for no effect and ±100 for the full control effect; compound concentration not given in the record
#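 In 5 uL wells, 23 nL compound meets equimolar GST-E1A and His-CtBP (5X stock 125 nM each) for 2 h, 37 °C. Beads (5X, 50 ug/mL) then 1 h, 37 °C, dark.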
# Active calls of the source: *; ? = inconclusive; . = not tested or not shown; & = joins results of further samples.
SMILES,TRPML1 blocker,TRPV1 potentiator,Six1-Eya2 inh,D2 potentiator,TRPML1 ag,CtBP-E1A inh
COc1ccc(CCC(C)NCc2ccc(Cl)c(Cl)c2)cc1 (centres undefined),-5,4,17,-4,-0.4,23
Cc1ccc(N(C)S(=O)(=O)c2cccc(C(=O)N3CCN(Cc4ccccc4)CC3)c2)cc1,-7,.,-3,-1,-0.2,.
COc1cc2[nH]c(=O)n(CCC(=O)N3CC=C(c4ccccc4)CC3)c(=O)c2cc1OC,8,2,3,1,0.3,0
CNc1nc(N)c([N+](=O)[O-])c(NCC2CCCO2)n1 (centres undefined),15,4,6,8,1.5,.
Cc1ccc(S(=O)(=O)c2nc(N3CCOCC3)sc2Cl)cc1,-1,-11,-3,1,-1.0,-1
CC1Cc2ccccc2N1C(=O)NC1CC(=O)N(c2ccc3c(c2)OCCO3)C1 (centres undefined),-4,-43,-3,-11,-0.1,2
C=CCn1c(=N)c(C(=O)NCCCOC)cc2c(=O)n3cccc(C)c3nc21,26,-10,-19,-11,-0.3,-18
CC1CCN(C(=O)c2ccc(NS(=O)(=O)c3cccs3)cc2)CC1,3,11,-2,3,-0.1,5
O=C(CN1CCN(C2CCCCC2)CC1)Nc1ccc(Br)cc1,7,-22,5,-13,1.5,-10
COc1cc(-c2noc(C)c2C(=O)NCc2ccc(C)o2)cc(OC)c1OC,5,.,-2,-1,-0.6,-1
CCC(CC)C(=O)Nc1cc([N+](=O)[O-])ccc1F,23,-5,-3,-22,-0.7,-4
O=C(Nc1ccncc1)C1CC(=O)N(c2ccccc2)C1 (centres undefined),10,.,2,-6,-0.1,1
Nn1c(Cc2cccc3ccccc23)nnc1SCC(=O)N1CC(=O)Nc2ccccc21,-19,1,-11,-12,-1.7,-5
O=C(NNC(=O)c1cc2ccccc2oc1=O)c1ccccc1[N+](=O)[O-],-16,2,-4,4,-0.6,-1
Cc1nn(CCCC(=O)NC2CCC(C)CC2)c(=O)c2nn(-c3ccccc3)c(C)c12 (centres undefined),0,23,8,-3,1.1,3
COc1nc2ccccc2nc1OC,2,4,10,-5,0.1,-3
Cc1ccc(OCC(=O)N/N=C2/SCC(=O)N2Cc2ccco2)cc1,3,-11,-1,-8,0.3,8
CCOc1ccc(S(=O)(=O)N2CCOCC2)cc1NC(=O)CN1C(=O)NC2(CCCCC2)C1=O,2,14,4,-2,0.0,-6
CCN(CC(=O)NCc1ccc(Cl)cc1)C(=O)CCc1ccccc1,17,17,10,-3,-0.5,.
COc1cccc(OC)c1C(=O)Nc1nnc(-c2ccc(F)cc2)s1,16,?,0,-2,0.5,0
Cc1ccc(NC(=O)C2CCCCC2C(=O)O)cc1Cl (centres undefined),-19,7,-5,-4,0.0,-11
Cc1cc(Cl)ccc1OCC(=O)NC(=S)Nc1ccccc1N1CCOCC1,23,5,-7,1,0.0,-5
O=c1c(-c2ccc(F)cc2)coc2cc(O)ccc12,-10,-5,-1,-15,-0.4,14
CCC(=O)c1cn(CC(=O)NCc2cccnc2)c2ccccc12,-9,12,-1,-8,-0.7,12
Cc1ccc(S(=O)(=O)NC(=O)C2(C)CCN2C(=O)c2ccccc2)cc1 (centres undefined),.,.,6,-6,-0.2,10
CC1(c2ccccc2Br)NC(=O)N(CC(=O)N2CCc3ccccc3C2)C1=O (centres undefined),25,.,1,-13,19,-2
CC(C)(C)c1ccc(S(=O)(=O)CCc2ccccn2)cc1,2,-13,-1,10,-0.2,4
COc1ccc(C(=O)N2CCC(C(=O)Nc3ccc4c(c3)OCCO4)CC2)cc1,17,28,0,-2,0.7,3
O=C(c1ccc2c(c1)[nH]c(=S)n1c3ccccc3nc21)N1CCN(c2ncccn2)CC1,21,.,-5,-5,-0.3,-6
CCS(=O)(=O)c1nc(S(=O)(=O)c2ccc(Cl)cc2)c(N2CCC(C(N)=O)CC2)s1,17,10,-2,1,-0.9,5
Cn1c(CCN2CCN(c3ccccn3)CC2)nc2cc(NC(=O)COc3ccc([N+](=O)[O-])cc3)ccc21,-3,2,0,3,-0.2,.
CC(C)NC(=O)N1CCN(c2ccncc2S(=O)(=O)N2CCOCC2)CC1,-10,?,12,1,-0.8,1
CC1=CC(C)C2C(=O)N(CCC[N+](C)(C)C)C(=O)C2C1 (centres undefined),-24,7,12,8,-0.3,1
Cc1nc(SCC(=O)Nc2sccc2C(N)=O)c2c(C)c(C)sc2n1,8,.,-13,-11,-1.0,-7
Cc1cccc2cc3c(N)c(C(=O)N4CCOCC4)sc3nc12,0,-2,6,5,0.3,-13
NC(=O)C1CC(=O)N(c2ccc(OCc3c(Cl)cccc3Cl)cc2)C1 (centres undefined),-18,-17,-2,-4,-0.2,.
Cn1c(=O)oc2cc(S(=O)(=O)N3CCN(c4ccccc4F)CC3)ccc21,-7,-17,6,-7,1.0,-1
Cc1c(C2OC(=O)C3(CCCCC3)C(=O)C2(C)C)c(=O)n(-c2ccccc2)n1C (centres undefined),-7,10,-2,-1,0.5,7
CC(C)(C)C1CCC(=O)C(C2(O)C(=O)Nc3ccccc32)C1 (centres undefined),5,4,4,-5,-0.1,8
CCOC(=O)c1c(NC(=O)C(Sc2ccccc2)c2ccccc2)sc(C(=O)N(C)C)c1C (centres undefined),2,14,-12,-3,0.6,32
O=C(Nc1ccc(S(=O)(=O)N2CCOCC2)cc1)c1ccc(Cl)s1,-7,-8,-1,-12,-0.2,5
COc1ccccc1OCCn1cc(/C=C(\C#N)C(=O)NCc2ccco2)c2ccccc21,10,11,8,-1,3.4,-16
CCn1c(COc2ccccc2C)nnc1SCC(=O)N1CCCCC1,-5,9,-3,-17,0.2,7
c1ccc2c(c1)nnn2Cn1nnc2ccccc21,6,.,-1,-2,0.4,3
N#C/C(C(=O)NCc1ccco1)=C1/SC(Cc2ccc(Cl)cc2)C(=O)N1c1ccccc1 (centres undefined),4,-16,-6,-5,1.1,-13
CCn1ncc(C2=NOC(C(=O)Nc3ccc(C)cc3)C2)c1C (centres undefined),14,-3,0,9,1.0,2
CCOc1ccc(C2C3=C(CCCC3=O)Nc3ccc4ncccc4c32)cc1 (centres undefined),.,-21,0,-14,.,-5
CCc1ccc(NC(=O)CSc2nnc(Cc3cccn3C)n2-c2ccc(F)cc2)cc1,3,12,-13,-1,1.9,-5
COc1ccccc1CCC(=O)N1CCN(C(=O)c2ccccc2)CC1,-7,6,3,-4,0.5,-10
Cc1nnc(Nc2ccccc2)n(N)c1=O,-20,-1,2,-10,1.7,-1
C=CCNC(=O)/C(C#N)=C/c1ccc(OS(=O)(=O)c2ccc(C)cc2)c(OC)c1,-5,4,1,3,0.4,3
O=C(O)c1cnccn1,-2,-1,-2,-7,0.5,-3
COc1ccc(N(C(=O)c2ccco2)S(=O)(=O)c2cccc([N+](=O)[O-])c2)cc1,-6,-15,0,-5,2.0,54
COc1ccc(CCN(C)C(=O)c2ccc(S(=O)(=O)Nc3ccccc3C)cc2)cc1OC,-8,-8,-5,-22,0.4,-9
CSC1=NCCN1C(=O)c1cccc(Br)c1,-10,1,6,-19,-0.5,3
CN1CCC(OC(c2ccccc2)c2ccc(Cl)cc2)C1 (centres undefined),27,.,-7,-16,2.6,-16
COC(=O)c1ccc(C2C(C#N)=C(N)Oc3cc(O)ccc32)cc1 (centres undefined),-8,?,1,5,8.0,3
Cc1cc(=O)[nH]c(N/N=C/c2cccs2)n1,4,-12,-30,0,-1.4,?
COc1ccc(NC(=O)CSC(C)c2nc3ccccc3c(=O)[nH]2)cc1 (centres undefined),-15,8,1,-6,-0.1,4
CN(C1CCCCC1)S(=O)(=O)c1ccc(C(=O)Nc2sc3c(c2C(N)=O)CC(C)(C)NC3(C)C)cc1,7&-16,9,1,-15,0.3&0.5,6
# New compounds follow
SMILES,TRPML1 blocker,TRPV1 potentiator,Six1-Eya2 inh,D2 potentiator,TRPML1 ag,CtBP-E1A inh
Cc1cc(C(=O)NN=C(CCC(=O)O)c2cccs2)c(C)o1,-6,.,2,1,0.6,-2
COc1cccc(NC(=S)N(CCCN2CCCC2)Cc2ccco2)c1,6,-2,-6,-25,-0.8,-4
COc1ccc(CCNC(=O)C2(C)CCC(=O)N2Cc2ccc(F)cc2Cl)cc1OC (centres undefined),22,4,-4,-4,0.1,-3
NC(=O)NNC(=S)Nc1cccc2ccccc12,-9,-2,5,-9,0.6,3
COC(CNC(=O)C(=O)Nc1ccc2c(c1)N(S(=O)(=O)c1cccs1)CCC2)OC,-1,-22,7,-14,-0.8,0
Cn1cc(CCC(=O)N2CCCC(Nc3ccc(F)cc3)C2)cn1 (centres undefined),10,21,3,-13,0.1,.
O=C(Cn1nc(-c2ccccc2)ccc1=O)NCCCN1CCOCC1,.,6,1,5,.,4
COc1ccc(C(=O)NNC(=O)C2CC=CCC2)cc1 (centres undefined),-10,3,-5,-8,0.8,3
O=C(O)c1cn[nH]c1-n1cnnn1,-12,2,?,-8,-0.8,?
CCOC(=O)C1CCCN(C(=O)c2cn(C)c(=O)c3cc(OC)c(OC)cc23)C1 (centres undefined),0,6,0,-2,0.0,4
Clc1ccc(SCc2nc3ccccc3[nH]2)cc1,21,-25,2,-13,1.4,5
CCn1cc(CN2CCCC(CNC(=O)COc3ccccc3OC)C2)c(C)n1 (centres undefined),8,24,3,-11,0.2,3
CC(C)(C)c1ccc(-c2noc(-c3ccno3)n2)cc1,1,.,41,-1,0.9,0
Cn1cc([N+](=O)[O-])c(C(=O)N(Cc2ccccc2)Cc2ccccc2)n1,13,14,8,12,0.4,-3
CCN(CC)S(=O)(=O)c1ccc2c(c1)nc(SCC(=O)N1CCCCCC1)n2-c1ccc(OC)cc1,34,13,-8,-8,1.2,-14
CC1Sc2ccc(S(=O)(=O)CCC(=O)NCc3cccs3)cc2NC1=O (centres undefined),-8,5,2,-6,0.3,1
Cc1ccc(/C=C/C(=O)N2CCN(c3ncccn3)CC2)o1,5,4,13,-11,0.9,18
O=C(CSc1nnnn1Cc1ccccc1)N1CCN(c2ccccc2)CC1,26,-4,8,-7,1.3,4

# Part of the list above, with bars between the fields.
Molecule | TRPML1 blocker | TRPV1 potentiator | Six1-Eya2 inh | D2 potentiator | TRPML1 ag | CtBP-E1A inh
Cn1cc(CCC(=O)N2CCCC(Nc3ccc(F)cc3)C2)cn1 (centres undefined) | 10 | 21 | 3 | -13 | 0.1 | .
O=C(Cn1nc(-c2ccccc2)ccc1=O)NCCCN1CCOCC1 | . | 6 | 1 | 5 | . | 4
COc1ccc(C(=O)NNC(=O)C2CC=CCC2)cc1 (centres undefined) | -10 | 3 | -5 | -8 | 0.8 | 3
O=C(O)c1cn[nH]c1-n1cnnn1 | -12 | 2 | ? | -8 | -0.8 | ?
CCOC(=O)C1CCCN(C(=O)c2cn(C)c(=O)c3cc(OC)c(OC)cc23)C1 (centres undefined) | 0 | 6 | 0 | -2 | 0.0 | 4
Clc1ccc(SCc2nc3ccccc3[nH]2)cc1 | 21 | -25 | 2 | -13 | 1.4 | 5
CCn1cc(CN2CCCC(CNC(=O)COc3ccccc3OC)C2)c(C)n1 (centres undefined) | 8 | 24 | 3 | -11 | 0.2 | 3

# Screening results as filed in PubChem BioAssay.
